Source: PubChem (National Center for Advancing Translational Sciences (NCATS))
RXFP1 antag: qHTS Assay for Antagonists of the Relaxin Receptor RXFP1; 0.59% of 350,000 active; Relaxin receptor 1 (Homo sapiens), Q9HBX9; activity change, negative = inhibition, % at 57.5 µM; HEK293-RXFP1, relaxin-stimulated cAMP HTRF, 30 min; active compounds read low;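 active = activity change of -60% or lower, but not beyond a set lower limit; inconclusive = change between -60% and -40%, or beyond the set limit; inactive = change above -40%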; note: % is set by controls: 0 for no effect and ±100 for the full control effect
RXFP1 agonist: qHTS Assay for Agonists of the Relaxin Receptor RXFP1. Relaxin receptor 1 (Homo sapiens), Q9HBX9. HEK293T-RXFP1 cAMP TR-FRET, 30 min; response scale: percent of porcine relaxin response, buffer zero. Potency, µM (series often up to 57.5 µM), for inactives: at the top dose activation, actives largely listed as activators. 0.3% of 370,000 active. AID 2676, 2010; note: potency is the fitted concentration of half-maximal effect; % is set by controls: 0 for no effect and ±100 for the full control effect; nearly all actives have a fitted effect of over 60% in size; many of its hits are not listed in these tables
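Agonist response is measured as cAMP accumulation in an RXFP1-transfected HEK293T line under PDE4 inhibition. Values are scaled between buffer-only and 29 nM porcine relaxin, and EC50s come from standard Hill equation fits.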
GRP78 ERSR act: qHTS for Inducers of the Endoplasmic Reticulum Stress Response (ERSR) in Human Glioma: qHTS. Potency, µM, without a hit: top-dose activation, usual class: activators. U87-MG GRP78 promoter luciferase reporter, 16 h. 0.02% of 420,000 active; note: potency is the fitted concentration of half-maximal effect; series mostly up to about 76 µM; % of control where 0% means no effect; nearly all actives have a fitted effect of over 35% in size
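Stably transfected U87-MG glioma cells carrying a GRP78-based luciferase sensor; 16 h compound incubation. Luminescence end-point read 10 min after Bright-Glo addition at room temperature.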
Vif-APOBEC3F blk: qHTS for Inhibitors of Vif-A3F Interactions: qHTS; HeLa A3F-eYFP + Vif (tagged APOBEC3F with the HIV-1 protein that degrades it), YFP fluorescence increase; Potency, µM (series often up to 46.1 µM), for the others: at the top dose activity, negative = active; 0.2% of 390,000 active; note: potency is the fitted concentration of half-maximal effect; % of control where 0% means no effect; nearly all actives have a fitted effect of over 65% in size
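HeLa cells stably expressing A3F-eYFP plus Vif, plated and incubated overnight at 37 deg C, then exposed to compounds overnight at 37 deg C. Blocked degradation read as raised yellow fluorescence (Ex 488/Em 500-530).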
D2 PAM: HTS Assay for Positive Allosteric Modulators of the Human D2 Dopamine Receptor: Primary Screen for Potentiators. AID 485347, 2010. HEK293 T-REx D2, calcium flux, EC20 dopamine potentiation. 0.34% of 340,000 active. D(2) dopamine receptor (Homo sapiens), P14416. potentiation, % at 10 µM;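 active = potentiation over 3 SD above the plate norm, cut at about 30% in these data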; note: 0% is about no effect
Target sequence (P14416 whole entry, looked up): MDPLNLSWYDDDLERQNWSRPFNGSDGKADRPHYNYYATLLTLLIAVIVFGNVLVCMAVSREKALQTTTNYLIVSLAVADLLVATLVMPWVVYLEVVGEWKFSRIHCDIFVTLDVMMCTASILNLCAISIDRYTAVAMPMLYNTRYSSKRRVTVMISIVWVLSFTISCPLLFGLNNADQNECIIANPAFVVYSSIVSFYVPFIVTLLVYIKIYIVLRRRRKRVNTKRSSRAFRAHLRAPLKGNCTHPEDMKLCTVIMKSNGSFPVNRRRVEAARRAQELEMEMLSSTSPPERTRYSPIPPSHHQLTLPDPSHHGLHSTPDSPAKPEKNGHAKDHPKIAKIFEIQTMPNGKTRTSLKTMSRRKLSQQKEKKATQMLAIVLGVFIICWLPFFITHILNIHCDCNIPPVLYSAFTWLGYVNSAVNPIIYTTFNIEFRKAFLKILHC
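Potentiation of an EC20 dopamine calcium response is measured in a force-coupled, tetracycline-inducible Hek293 Trex D2 line. Compound-only kinetic reads over 180 s flag agonists before dopamine addition.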
* = called active by the depositor; ? = inconclusive; . = no result given; & = joins results of further samples. Unless noted, calls come from the whole dose curve; as a rule, active = well fitted curve in the direction sought with a large enough effect; inconclusive = small, poorly fitted or top-dose-only effect, or another doubt; inactive = no such curve, though single readings can be large; an effect the other way counts as inactive or inconclusive. Some of the compounds tested (hit frequency here may not be typical).

Screens by letter – A = RXFP1 antag; B = RXFP1 agonist; C = GRP78 ERSR act; D = Vif-APOBEC3F blk; E = D2 PAM
> CC(C)(C)NC(=O)[C@@H]1C[C@@H]2CCCC[C@@H]2CN1C[C@@H](O)[C@H](Cc1ccccc1)NC(=O)[C@H](CC(N)=O)NC(=O)c1ccc2ccccc2n1
  A = .	B = 1.0%	C = -4%&0%&-2%	D = ?	E = -3
> O=C(O)C1CCN(S(=O)(=O)/C=C/c2ccccc2)CC1
  A = 7	B = -0.1%	C = -3%	D = 3%	E = 4
> CO[C@H]1C=CO[C@@]2(C)Oc3c(C)c(O)c4c(O)c(c(C=NN5CCN(C)CC5)c(O)c4c3C2=O)NC(=O)C(C)=CC=C[C@H](C)[C@H](O)[C@@H](C)[C@@H](O)[C@@H](C)[C@H](OC(C)=O)[C@@H]1C
  A = .	B = 0.4%	C = -2%	D = 11%	E = 14
> C[C@@H](C(=O)O)c1cccc(C(=O)c2ccccc2)c1
  A = .	B = .	C = -3%	D = .	E = .
> CCOC(=O)N1CCC(=C2c3ccc(Cl)cc3CCc3cccnc32)CC1
  A = -32	B = -0.3%&2.4%	C = -2%&2%&-2%&-4%&-3%	D = 2%	E = 13&2
> O=C(NC[C@H]1CCCCN1)c1cc(OCC(F)(F)F)ccc1OCC(F)(F)F
  A = .	B = .	C = -5%	D = .	E = .
> COc1cccc2c1C(=O)c1c(O)c3c(c(O)c1C2=O)C[C@](O)(C(C)=O)C[C@H]3O[C@@H]1C[C@@H](N)[C@@H](O)[C@@H](C)O1
  A = .	B = -1.3%	C = -1%	D = -1%	E = -3
> COc1c2occc2cc2ccc(=O)oc12
  A = -2&-12	B = 0.8%	C = -7%&-1%&-3%&-5%&-4%	D = -19%	E = 14
> CCCC(=O)Nc1ccc(OC[C@@H](O)CNC(C)C)c(C(C)=O)c1
  A = .	B = .	C = -5%	D = .	E = .
> NCCCC(=O)O
  A = .	B = 1.8%	C = -1%&-4%&-5%&-5%&-3%	D = -5%	E = 9
> Cc1cc(NS(=O)(=O)c2ccc(N)cc2)no1
  A = 12	B = 3.1%	C = -4%&-1%&-3%&-4%	D = -3%	E = 5

Exported with two lines to a compound: part of the list above.
The line under a structure holds: RXFP1 antag, RXFP1 agonist, GRP78 ERSR act, Vif-APOBEC3F blk, D2 PAM
> CC(C)(C)NC(=O)[C@@H]1C[C@@H]2CCCC[C@@H]2CN1C[C@@H](O)[C@H](Cc1ccccc1)NC(=O)[C@H](CC(N)=O)NC(=O)c1ccc2ccccc2n1
 : ., 1.0%, -4%&0%&-2%, ?, -3
> O=C(O)C1CCN(S(=O)(=O)/C=C/c2ccccc2)CC1
 : 7, -0.1%, -3%, 3%, 4
> CO[C@H]1C=CO[C@@]2(C)Oc3c(C)c(O)c4c(O)c(c(C=NN5CCN(C)CC5)c(O)c4c3C2=O)NC(=O)C(C)=CC=C[C@H](C)[C@H](O)[C@@H](C)[C@@H](O)[C@@H](C)[C@H](OC(C)=O)[C@@H]1C
 : ., 0.4%, -2%, 11%, 14
> C[C@@H](C(=O)O)c1cccc(C(=O)c2ccccc2)c1
 : ., ., -3%, ., .
> CCOC(=O)N1CCC(=C2c3ccc(Cl)cc3CCc3cccnc32)CC1
 : -32, -0.3%&2.4%, -2%&2%&-2%&-4%&-3%, 2%, 13&2
> O=C(NC[C@H]1CCCCN1)c1cc(OCC(F)(F)F)ccc1OCC(F)(F)F
 : ., ., -5%, ., .
> COc1cccc2c1C(=O)c1c(O)c3c(c(O)c1C2=O)C[C@](O)(C(C)=O)C[C@H]3O[C@@H]1C[C@@H](N)[C@@H](O)[C@@H](C)O1
 : ., -1.3%, -1%, -1%, -3
> COc1c2occc2cc2ccc(=O)oc12
 : -2&-12, 0.8%, -7%&-1%&-3%&-5%&-4%, -19%, 14
